Rce1 inh: blocks yeast Ras-converting enzyme; calls only; yeast membranes, quenched prenylated peptide cleavage fluorescence; Q03530; 290,000 compounds, 0.27% hits; AID 2563;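 active = fall in fluorescence gain of 50% or more versus controls, with final raw signal at or below 3038400; inconclusive = same 50% fall but final raw signal above 3038400; inactive = fall in fluorescence gain under 50%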;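 also: plate controls were neutral control wells for no effect and wells lacking membranes for full effect; tested at 10 µM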
Target sequence (Q03530 whole entry, looked up): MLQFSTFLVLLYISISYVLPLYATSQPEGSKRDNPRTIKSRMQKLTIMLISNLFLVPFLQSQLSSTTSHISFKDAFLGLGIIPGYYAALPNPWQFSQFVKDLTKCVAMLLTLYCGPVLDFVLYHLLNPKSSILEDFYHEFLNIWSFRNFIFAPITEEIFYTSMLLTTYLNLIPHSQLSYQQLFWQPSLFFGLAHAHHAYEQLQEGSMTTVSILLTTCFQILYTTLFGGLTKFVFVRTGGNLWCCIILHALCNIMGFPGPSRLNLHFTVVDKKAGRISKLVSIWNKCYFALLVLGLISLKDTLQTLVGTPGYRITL
PABP polyA inh: blocks human PABP binding to poly(A) RNA; 290,000 compounds, 1% hits; inhibition, % at 35 µM; fluorescence polarization;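 active = 50% or more with normal probe brightness, or confirmed in later tests; inconclusive = above 50% with abnormal brightness, or retests that disagree; inactive = below 50% or failed in later tests; about a fifth of its hits are not listed in these tables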;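 also: calls also rest on retests at 20 µM and on dose response follow-up; controls were probe without protein and protein plus probe with vehicle; some compounds called inactive have numbers as strong as hits; many hits fall short of the cut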
Target sequence (P11940 whole entry, looked up): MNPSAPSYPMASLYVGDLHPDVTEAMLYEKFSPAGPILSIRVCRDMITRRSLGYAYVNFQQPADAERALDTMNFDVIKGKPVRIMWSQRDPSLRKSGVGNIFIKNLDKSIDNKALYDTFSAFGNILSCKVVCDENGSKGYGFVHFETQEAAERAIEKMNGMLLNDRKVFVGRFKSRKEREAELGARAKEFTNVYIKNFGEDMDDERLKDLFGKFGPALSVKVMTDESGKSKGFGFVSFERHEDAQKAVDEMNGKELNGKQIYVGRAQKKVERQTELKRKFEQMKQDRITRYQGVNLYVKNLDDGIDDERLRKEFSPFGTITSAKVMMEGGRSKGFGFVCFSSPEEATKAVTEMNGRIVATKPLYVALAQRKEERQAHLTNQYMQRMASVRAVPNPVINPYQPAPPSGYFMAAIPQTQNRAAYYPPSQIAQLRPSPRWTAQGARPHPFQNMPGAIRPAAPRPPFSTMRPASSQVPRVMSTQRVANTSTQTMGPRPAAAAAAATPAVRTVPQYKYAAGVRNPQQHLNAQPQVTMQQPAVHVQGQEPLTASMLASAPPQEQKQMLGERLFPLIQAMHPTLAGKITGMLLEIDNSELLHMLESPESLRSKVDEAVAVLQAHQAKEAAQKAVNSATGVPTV
MT1-MMP act inh: MT1-MMP (human) activation inhibition | 360,000 compounds, 0.061% hits | P50281 | GFP/RFP ratio change, % at 20 µM | HT1080 RFP-PRO-GFP cells, GFP/RFP ratio fluorescence, overnight; percent of plate control window, DMSO zero;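 active = GFP/RFP ratio change of at least 30% with cell ATP level not reduced by more than half and red fluorescence within 50% of control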; also: strong numbers were not always called active
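Material: RFP-PRO-GFP reporter HT1080 cells. Dosing: single-point 20 µM compound, 1% DMSO. Controls: DMSO and RFP-L50D-GFP cell wells. Timing: cells overnight before dosing, compound overnight, 37 °C, 5% CO2. Measure: GFP/RFP fluorescence ratio.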
Yeast UUG start: modulators of start codon recognition fidelity in yeast; 350,000 compounds, 0.13% hits; activity score, % at 18.7 µM; S. cerevisiae UUG-firefly luciferase reporter, luminescence/redox ratio;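 active = replicate mean at a twofold rise or more, about +100% in these data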;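 also: firefly luciferase made from a UUG start codon reports start codon fidelity; reporter light over untreated wells divided by growth signal over untreated wells; some hits fall short of that in this replicate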
eIF4H FP inh: inhibitors of RNA binding by human eIF4H. eIF4H fluorescence polarization binding assay. inhibition, % at 35 µM. AID 2012. 290,000 compounds, 0.94% hits;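 active = 50% or more with normal probe brightness, or confirmed in later tests; inconclusive = above 50% with abnormal brightness, or retests that disagree; inactive = below 50% or failed in later tests; about a fifth of its hits are not listed in these tables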;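 also: calls also rest on retests at 20 µM and on dose response follow-up; 0% = protein and probe with vehicle and 100% = probe without protein; strong numbers were not always called active; many hits fall short of the cut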
Env fusion inh: HIV envelope-mediated fusion inhibition | HeLa-JRFL Env/CEM21 cell fusion, luciferase | inhibition, % at 12.3 µM | 360,000 compounds, 1.1% hits;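 active = mean replicate inhibition score of at least 50 and every replicate individually at or above 50; inconclusive = only one of the two criteria met; inactive = mean below 50 and not all replicates reaching 50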;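 also: 0% = plate neutral controls and 100% = maraviroc near 300 nM; one replicate is shown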
CSC inhib: cancer stem cell inhibition; 300,000 compounds, 1.1% hits; AID 2717; inhibition, % at 7.5 µM; cancer stem cell-like cells viability, luminescence;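 active = mean at 75% or more and at least half the replicates too; inconclusive = mean and replicates disagree; tested in HMLE shEcad cells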;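 also: 0% = median of negative and 100% = median of positive control wells; the first replicate is given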
MT1-MMP act inh RFP: also measured in MT1-MMP act inh; calls as there; RFP signal change, %; measured here: RFP expression control read;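 0 = vehicle wells; hits needed this value within 50% of zero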
* = called active by the depositor; i = inactive; ? = inconclusive; . = no result given; + = active, no number. These rows are one share of the data (hit frequency here may not be typical).

SMILES	Rce1 inh	PABP polyA inh	MT1-MMP act inh	MT1-MMP act inh RFP	Yeast UUG start	eIF4H FP inh	Env fusion inh	CSC inhib
CN(C)C(=O)C12CCC(C)(C(=O)C1Br)C2(C)C (stereo not drawn)	i	15	4	1	-4	2	-7	-2
C[C@@H]1CC[C@@]2(O[C@@H](CCO)C[C@H](O)[C@H]2O)O1	i	.	-2	3	-3	.	29	-5
CCNC(=O)c1ccccc1NC(=O)c1cccc(S(=O)(=O)N2CCOCC2)c1	i	2	3	1	.	5	3	-7
O=C(c1ccc(Cl)cc1)C1CCCN(Cc2cccn2-c2ccccn2)C1 (stereo not drawn)	i	-2	-4	-6	.	2	11	-4
CCOc1ccc(NC(=O)NC23CC4CC(CC(C4)C2)C3)cc1	i	4	-1	-4	.	0	-6	37
COc1ccc(S(=O)(=O)N2CCCCC2)cc1NC(=O)Cc1cccc(C(F)(F)F)c1	.	.	2	2	-12	.	19	.
N#Cc1c(-c2cccnc2)c2c([nH]c1=O)-c1ccccc1OC2	i	13	2	6	-9	10	11	-7
CC(OC(=O)c1nsc(Cl)c1Cl)C(=O)NC(C)(C)C (stereo not drawn)	i	-12	-3	5	-7	-1	24	7
Oc1ccc(-c2nnc(Nc3ccccc3)c3ccccc23)cc1	i	1	1	9	-15	4	-9	-7
COc1ccc(NC(=O)C2(C)CCN2Cc2cccc(OC)c2F)cc1OC (stereo not drawn)	.	.	-3	-4	-2	.	10	.
Cc1nnc(SCC(=O)NCCOc2ccc(Cl)cc2)n1-c1ccccc1	i	0	2	-1	-18	-2	.	1
COc1ccc(/C=C2\Sc3ccc(C(=O)NC4CC4)cc3N(C)C2=O)cc1OC	i	2	4	-4	2	-5	9	11
CCOc1cccc(CN2CCC(n3nccc3NC(=O)C3CC3)CC2)c1O	.	1	-2	2	-11	-3	-10	-3
CC(=O)C1=C(O)C(=O)N(Cc2ccco2)C1c1ccccc1 (stereo not drawn)	i	14	7	-1	-14	-16	.	-7
N#Cc1ccc(-c2nnnn2-c2ccc3c(c2)OCO3)cc1	i	-6	1	1	-15	-4	.	0
CN/C=C1\C(=O)C(C)(C)Oc2ccc3ccc(=O)oc3c21	i	3	7	-1	13	-11	.	-17
Cc1nc(NCCc2ccccc2)c(C#N)c(C)c1[N+](=O)[O-]	i	0	-1	-4	.	4	-77	25
C/C(=N\NC(=O)Nc1ccccc1)c1ccc2ccccc2c1	i	3	-4	-3	-14	-7	-6	-4
CC(Oc1ccc2c(c1)c1ccnc3c4ccccc4c(=O)n2c13)C(=O)NCCN1CCOCC1 (stereo not drawn)	i	2	.	.	7	0	.	-13
O=C(CN1CCCCCC1)N/N=C/c1ccc2ccccc2c1	i	8	3	2	-1	-3	-1	-12
Cc1cc(C)cc(OCC(=O)N2CCN(c3ncccn3)CC2)c1	.	.	1	4	-4	.	7	-12
CC1=C(C(=O)OCc2ccccc2)C(c2ccsc2)C(C#N)=C(N)O1 (stereo not drawn)	i	-3	5	-3	-10	15	.	6
COC(=O)c1sc2ncccc2c1OCc1cccc(Cl)c1	i	0	-4	-3	-12	3	-52	-2
COc1cc(/C=C/C(=O)OCC(=O)NC(=O)NC(C)C)ccc1OCC#N	i	-1	4	3	-10	-6	12	8
CCOC(=O)c1[nH]c(C)c(C(=O)OCCN2C(=O)c3ccccc3C2=O)c1C	i	-18	0	0	-11	-3	-8	-8
COC(=O)c1ccc(-c2ncc[nH]2)cc1	i	-9	4	3	.	-4	0	1
COC(=O)C1CCCN1S(=O)(=O)c1ccc2ccccc2c1 (stereo not drawn)	+	-9	8	3	-5	-3	27	1
COc1ccc(OCC(=O)N2CCC3(CC2)CC(=O)c2ccccc2O3)cc1	i	.	0	-1	-16	.	-6	-9
CCOc1ccc(-c2ccc(SCC(=O)N3CCOCC3)nn2)cc1	i	8	1	-3	.	-8	-4	-3
c1nc(CCO[C@H]2CCCCO2)cc2cc3c(cc12)OCO3	.	.	1	0	-60	.	14	-2

Structural class, the entries above with four or more nitrogen atoms
SMILES	Rce1 inh	PABP polyA inh	MT1-MMP act inh	MT1-MMP act inh RFP	Yeast UUG start	eIF4H FP inh	Env fusion inh	CSC inhib
Cc1nnc(SCC(=O)NCCOc2ccc(Cl)cc2)n1-c1ccccc1	i	0	2	-1	-18	-2	.	1
CCOc1cccc(CN2CCC(n3nccc3NC(=O)C3CC3)CC2)c1O	.	1	-2	2	-11	-3	-10	-3
N#Cc1ccc(-c2nnnn2-c2ccc3c(c2)OCO3)cc1	i	-6	1	1	-15	-4	.	0
Cc1nc(NCCc2ccccc2)c(C#N)c(C)c1[N+](=O)[O-]	i	0	-1	-4	.	4	-77	25
CC(Oc1ccc2c(c1)c1ccnc3c4ccccc4c(=O)n2c13)C(=O)NCCN1CCOCC1 (stereo not drawn)	i	2	.	.	7	0	.	-13
Cc1cc(C)cc(OCC(=O)N2CCN(c3ncccn3)CC2)c1	.	.	1	4	-4	.	7	-12

Continued.
SMILES	Rce1 inh	PABP polyA inh	MT1-MMP act inh	MT1-MMP act inh RFP	Yeast UUG start	eIF4H FP inh	Env fusion inh	CSC inhib
Cc1cc(/C=N/NC(=O)c2ccncc2)c(C)n1-c1cccc(C(F)(F)F)c1	i	0	5	-2	.	-1	0	13
COCCNS(=O)(=O)c1ccc2c(c1)C(=NO)c1cc(S(=O)(=O)NCCOC)ccc1-2	i	3	2	-7	.	-10	-17	-18
CCCn1ncc(/C=N/O)c1C	i	1	-9	-6	-16	10	18	-10
Cc1cc(=O)[nH]c(SCC(=O)/C=C2\N(C)c3ccccc3C2(C)C)n1	i	8	56	61	.	?	.	-8
Cn1ccc2c(N3CCOCC3)cc3c(c21)C1CCC3O1 (stereo not drawn)	.	.	4	5	-17	.	20	.
CCOc1ccc(Cl)cc1-c1cc(C(=O)Nc2cc(OC)c(OC)c(OC)c2)[nH]n1	.	.	4	-3	-19	.	6	.
COC(=O)COc1ccc(S(=O)(=O)NCc2ccco2)cc1Cl	i	-4	2	7	-4	7	0	-9
O=C(Cc1c[nH]c2ccccc12)NCc1ccccc1F	i	-5	3	0	.	14	4	-18
CC1CCN(Cc2c(C(=O)N/N=C/c3ccc(OC(C)C)cc3)nnn2-c2nonc2N)CC1	i	-4	0	-5	-4	-3	5	10
Cc1cc[n+](CC(=O)c2cc3ccccc3oc2=O)cc1	i	4	-1	6	-13	29	15	.
Cc1ccccc1NC(=O)c1c([N+](=O)[O-])c(C(C)(C)C)nn1C	i	-12	2	1	.	-7	36	-1
Cc1cnccc1CN(C)C(=O)CC1C(=O)NCCN1CC1CCCCC1 (stereo not drawn)	i	12	-2	4	.	11	7	0
COc1ccc(-c2c(NC(=O)C(C)C)n(C)c3ccccc3c2=O)cc1	i	-7	1	2	-4	-4	.	-4
CCC(C)NC(=O)CSc1nc2c(sc(=S)n2-c2cc(Cl)ccc2OC)c(=O)[nH]1 (stereo not drawn)	i	2	0	1	-2	-8	-11	.
O=C(CSc1nnc(NC(=O)c2c(F)cccc2F)s1)NCc1ccco1	i	.	-1	1	-1	.	-3	-4
CC(C)C(NC(=O)c1ccc(F)cc1)C(=O)NCC1CCCO1 (stereo not drawn)	i	-6	0	-2	-7	-10	-19	.
c1coc(CNc2ncnc3nc[nH]c23)c1	i	-1	-4	-1	-5	4	-1	-12
O=C(COc1ccccc1Cl)Nc1nc(-c2ccncc2)cs1	.	.	1	-9	-11	.	-17	1
CC(=O)Nc1cccc(C(=O)OC(C)C(=O)Nc2ccc(S(=O)(=O)N3CCCC3)cc2)c1 (stereo not drawn)	i	.	-1	1	-2	.	4	-4
CCOc1c(Nc2ccccc2O)c(=O)c1=O	i	7	-1	2	.	2	-1	-4
CCOC(=O)CSc1nc(N(C)C)nc(N(C)C#N)n1	i	0	-2	3	-16	-2	.	-19
C/C(Cl)=C/Cn1c(N2CCCC2)nc2c1c(=O)[nH]c(=O)n2C	i	-3	0	4	6	0	3	-4
O=C(CSc1nccc(=O)[nH]1)N1c2ccccc2CCc2ccccc21	i	-6	-2	0	2	-5	.	-6
COc1ccc(OCc2nnc3n2N=C(c2ccccc2)C(CC(=O)O)S3)cc1 (stereo not drawn)	i	12	3	5	-11	10	-1	7
Cc1ccc(CNC(=O)c2cn(C3CCCCC3)c(=O)c3c2c2ccccc2n3C)o1	i	9	0	-4	-10	-5	3	19
CCCCOc1cccc(C2C(C(=O)c3ccc(C)o3)=C(O)C(=O)N2Cc2ccco2)c1 (stereo not drawn)	i	1	-5	2	-5	-4	1	-15
Cc1nc2c(=O)n(-c3cccc(C(F)(F)F)c3)nc(C)c2s1	i	1	3	-1	.	3	9	-7
CCOC(=O)C1=CCN(S(=O)(=O)c2ccccc2F)C1c1cccc(Cl)c1 (stereo not drawn)	.	.	-2	-5	-3	.	11	.
O=C(CN1C(=O)NC2(CCCC2)C1=O)Nc1cc(Cl)ccc1Oc1ccccc1	.	.	-2	1	-23	.	.	-7
O=C(C1CCN(c2nc(-c3ccccc3)nc3c2CCC3)CC1)N1CCC(O)CC1	.	-14	-1	-1	-8	4	.	17
CCOC(=O)c1cc(NC(=O)c2cccnc2)ccn1	i	.	2	0	.	.	-1	-3
O=C(Nc1nnc([C@@H]2C[C@H](O)[C@@H](CO)O2)s1)Nc1cccc2ccccc12	.	.	5	8	-14	.	-24	.
CCCn1c(C)cc(C(=O)COC(=O)c2c(C)nn(-c3ccccc3)c2C)c1C	i	-2	-1	-5	.	4	.	45
CCOC(=O)c1sc(NC(=S)NC(=O)c2ccccc2)nc1C	i	-20	4	-1	.	-3	-69	.
COc1cccc(-c2cc3nc(NCc4ccccc4F)n(C)c(=O)c3s2)c1	.	.	1	-7	-14	.	10	.
CC(C)N(C(=O)CSc1nnc(NC(=O)c2cccs2)s1)C(C)C	i	0	-3	-4	-2	6	-27	-7
COc1cc(F)c(S(=O)(=O)N2CCOc3ccccc32)cc1OC	i	-8	0	-1	-13	3	-8	4
COCCCN=CC1=C(O)CC(c2ccccc2)CC1=O (stereo not drawn)	i	11	1	4	-10	0	-4	-1
C=CCN(CC=C)C(=O)Nc1cc(OC)ccc1OC	i	14	-2	-3	1	2	-9	-1
Cc1nnc(NC(=O)CCSc2ccc(Cl)cc2)s1	i	-8	3	-1	-8	-4	-6	1
CCSc1nnc(N(CCC#N)CCC#N)s1	i	-1	6	0	-14	-4	.	-1
O=C1CCCCCC1C1(O)C(=O)Nc2ccc(Br)cc21 (stereo not drawn)	i	10	1	4	10	2	-57	0
O=C(C[C@H]1C/C=C\CC[C@@H](Cc2ccc(F)cc2)C(=O)O[C@@H](c2ccccc2)CNC1=O)N[C@H](CO)Cc1ccccc1	.	.	0	-1	-15	.	9	-12
Cc1nn(CC2CC2)c(=O)n1-c1ccccc1	i	-9	4	5	-9	-9	-15	-3
COc1ccc2nc(N3CCN(C(=O)c4ccc5ncsc5c4)CC3)sc2c1	i	.	-12	-25	-15	.	32	-5
COc1ccc(C(O)c2ncc(-c3ccccc3F)[nH]2)cc1 (stereo not drawn)	.	.	2	3	-34	.	-2	.
COc1ccccc1/C=N/NC(=O)CNC(=O)c1ccccc1	i	9	-8	1	.	-4	-4	7
Cc1cc(=O)oc2c3c(cc(OCC(=O)NCC(=O)O)c12)OC(C)(C)CC3	?	13	0	4	-18	-4	8	6
O=C1C(Cl)=C(NCC2CCCO2)C(=O)N1c1ccccc1 (stereo not drawn)	i	-10	0	0	-6	-6	2	-13
